From PubChem
MgrA-DNA mod: S. aureus MgrA activity modulators, primary screen, biochemical, S. aureus Newman, fluorescence polarization; MgrA-DNA binding; inhibition, %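 (about 10 µg/mL by stock and volumes)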; 0.13% of 84,000 active;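 active = above 50% in either of two replicates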;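 note: 0% = protein plus DNA without compound and 100% = DNA alone without protein; higher means less MgrA bound to DNA so lower polarization; one replicate is shown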
Sa helicase inh: inhibitors of S. aureus replicative helicase, primary screen, biochemical, fluorescence unwinding readout. replicative DNA helicase (DnaC/DnaB), Staphylococcus aureus. purified S. aureus helicase, fluorescence unwinding assay; about half of the hits fall short of the stated cut. inhibition, %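 (tested at about 80 µM)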. 0.05% of 120,000 active. AID 485395, 2010;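 active = both duplicates at 50% or more, or one of them with a favoured structure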;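 note: 0% = mean of negative control wells and 100% = mean of positive control wells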
Starred values were filed as active, the others as inactive; . = not tested or not shown.

Sa helicase inh	MgrA-DNA mod	mol
4.0	1.8	CC1Cc2ccc(F)cc2CN1C(=O)c1ccc(COc2ccccc2Br)o1 (configuration not stated)
8.0	.	CCNc1nc(-c2cccnc2)nc2ccccc12
-9.0	.	CN(C)S(=O)(=O)c1cccc(COC(=O)c2cccnc2SCC(=O)Nc2ccc3c(c2)OCO3)c1
.	1.4	Nc1ccccc1SC(CC(=O)c1ccccc1)c1ccc2c(c1)OCO2 (configuration not stated)
1.0	.	O=C(c1ccccc1)N1CCN(c2ccc(N3CCOCC3)nn2)CC1
2.0	4.5	Cc1ccc2[nH]c3c(c2c1)CCCC3C#N (configuration not stated)
15.0	10.9	CCOCC(=O)Nc1nnc(C2CCCCC2)s1
-13.0	-0.2	O=C(COc1ncnc2ccccc12)NCCc1ccccc1
-23.0	.	CN(Cc1ccccc1)C(=O)Cn1c(=O)oc2ccccc21
-11.0	.	CCOC(=O)/C=C1\SCC(=O)N1Cc1cc(Cl)cc2c1OCOC2
-13.0	.	O=C(Oc1ccc2c(c1)OCO2)C12CC3CC(CC(C3)C1)C2
-1.0	0.5	O=C(Cn1c(=O)c2cccn2c2cccnc21)N1CCCC1
.	-5.7	CCOC(=O)/N=C(/c1ccc(Cl)cc1)c1cc2ccccc2cn1
-3.0	.	O=C(NCCO)c1cccc2c1-c1ccc(I)cc1C2
6.0	.	O=C(O)C1CSC(c2ccco2)=N1 (configuration not stated)
.	0.1	COc1ccccc1C1CCN(Cc2cn[nH]c2-c2ccccc2)CC1
.	0.7	Cc1nn(C)c(NCCCN(C)C)c1[N+](=O)[O-]
6.0	.	CC1CC(=O)C2=C(C1)Nc1ccccc1N=C2 (configuration not stated)
14.0	-0.7	CC(C)C(=O)N=C1c2ccccc2CN1c1ccc(C#N)cc1
.	-0.9	Cc1cc(OC(C)C)nc(N)n1
-72.0	55.6*	O=C1C=C(C(F)(F)F)c2ccc(NC3CCCCC3)c3cccc1c23
11.0	2.7	COc1ccc(/C=N/OCC(=O)N2CCOCC2)cc1
-18.0	.	COc1ccc(Sc2nn3nnnc3c3ccccc23)cc1
19.0	.	COc1ccc(Oc2c(C)oc3cc(OC(=O)N4CCOCC4)ccc3c2=O)cc1
.	-0.4	CC1CCC(C(C)C)C(NC(=O)c2ccco2)C1 (configuration not stated)
-16.0	.	COC(=O)c1sc2nc[nH]c(=O)c2c1CC(=O)O
7.0	0.6	O=C(/C=C/N1C(=O)c2ccccc2C1=O)c1ccccc1
0.0	-0.6	COc1ccc(-n2cnc3cc(NC(=O)c4cccs4)ccc32)cc1
4.0	0.3	Brc1ccc(-c2cc3n(c2)CCc2ccccc2-3)cc1
-8.0	.	Cc1c(C(=O)NCCN2CCOCC2)oc2ccc3c(c12)C(O)CC1(CCCCCC1)O3 (configuration not stated)
.	0.2	COc1ccc(C2C3=C(CC(c4ccco4)CC3=O)Nc3ccccc3N2C(=O)C(F)(F)F)cc1 (configuration not stated)
.	-0.8	C=CCn1c(=S)sc2c(N3CCN(c4ccccc4)CC3)ncnc21
.	3.1	C=CCn1c(=S)sc2c(Sc3nnc(-c4ccc(Cl)cc4)o3)ncnc21
5.0	.	COc1ccc(CCNC(=O)Cn2c(=O)[nH]c3ccsc3c2=O)cc1OC
-11.0	.	O=C(CN1C(=O)CC(c2ccccc2)Sc2ccccc21)NCC1CCCO1 (configuration not stated)
.	-5.0	CCCCN1C(=O)CCC(C(=O)O)C1c1cccs1 (configuration not stated)
9.0	-1.1	CC1Sc2cc(S(=O)(=O)N3CCC(Cc4ccccc4)CC3)ccc2NC1=O (configuration not stated)
-8.0	0.6	CCN(C(=O)Cn1nnc(-c2ccccc2)n1)c1ccccc1
-3.0	1.8	Cc1nc(Nc2ccc(S(=O)(=O)N3CCCC3)cc2)c2nnn(Cc3ccccc3)c2n1
-9.0	.	CC(=O)Nc1ccc2nc(NC(=O)c3ccc(-c4ccccc4)cc3)oc2c1
-1.0	.	N#CCCn1cc(/C=N/O)c(-c2ccccc2)n1
-13.0	.	COc1cc(C2NC(C(=O)O)Cc3[nH]cnc32)cc(Br)c1OCc1ccccn1 (configuration not stated)
2.0	1.1	O=S(=O)(Cc1ccccc1)NC1CCCCC1
18.0	.	O=C(N=c1scc(-c2ccccc2)n1-c1ccccc1)c1ccco1
8.0	2.4	COC(=O)c1ccccc1NC(=O)c1ccc(Cn2cc(Cl)cn2)cc1
.	1.6	COc1ccc(OCCC(=O)NNC(=S)Nc2cccc(OC)c2)cc1
16.0	-2.7	O=c1[nH]ncc(NCc2ccc(Cl)cc2)c1Cl
17.0	.	Cc1oc(-c2ccc(C(=O)N3CCCCC3)cc2)nc1COc1ccccc1
-6.0	-4.5	Cc1cc(C)n(C(=O)c2cccc(Cl)c2)n1
4.0	4.0	COc1ccccc1-n1c(=O)c2c3c(sc2n2c(=S)[nH]nc12)CCC3

Given with values under each structure: part of the list above.
Under each structure – Sa helicase inh	MgrA-DNA mod
COc1ccc(C2C3=C(CC(c4ccco4)CC3=O)Nc3ccccc3N2C(=O)C(F)(F)F)cc1 (configuration not stated)
    .	0.2
CC1CCC(C(C)C)C(NC(=O)c2ccco2)C1 (configuration not stated)
    .	-0.4
Nc1ccccc1SC(CC(=O)c1ccccc1)c1ccc2c(c1)OCO2 (configuration not stated)
    .	1.4

Structures above that contain an NH in an aromatic ring, in the order listed:
Sa helicase inh	MgrA-DNA mod	mol
2.0	4.5	Cc1ccc2[nH]c3c(c2c1)CCCC3C#N (configuration not stated)
.	0.1	COc1ccccc1C1CCN(Cc2cn[nH]c2-c2ccccc2)CC1
-16.0	.	COC(=O)c1sc2nc[nH]c(=O)c2c1CC(=O)O
5.0	.	COc1ccc(CCNC(=O)Cn2c(=O)[nH]c3ccsc3c2=O)cc1OC
-13.0	.	COc1cc(C2NC(C(=O)O)Cc3[nH]cnc32)cc(Br)c1OCc1ccccn1 (configuration not stated)
16.0	-2.7	O=c1[nH]ncc(NCc2ccc(Cl)cc2)c1Cl
4.0	4.0	COc1ccccc1-n1c(=O)c2c3c(sc2n2c(=S)[nH]nc12)CCC3

Next part
Sa helicase inh	MgrA-DNA mod	mol
-3.0	.	O=C(Nc1c(-c2ccccc2)nc2ncccn12)c1ccccc1
.	-1.5	CCCc1cc(=O)[nH]c(SCc2c(Cl)cccc2Cl)n1
8.0	1.8	Oc1ccccc1C=Nc1ccc(OC(F)(F)C(F)F)cc1
0.0	.	CCN1CCCC1CNC(=O)c1ccc(N2CCCC2=O)cc1 (configuration not stated)
9.0	.	CCOC(=O)c1ccc(NC(=O)C2CCN(Cc3cnn(-c4ccccc4)c3-n3cccc3)CC2)cc1
-14.0	-0.4	CC1Cc2cc(C3(O)C(=O)c4ccccc4C3=O)ccc2N1 (configuration not stated)
.	-3.1	Cn1c(SCC(=O)N2CCOCC2)nnc1-c1ccc2ncccc2c1
11.0	1.2	O=C(NCCSc1c[nH]c2ccccc12)c1ccc(S(=O)(=O)N2CCCC2)cc1
15.0	-1.1	O=C(O)c1cccnc1NC1CCCC1
26.0	.	CCC(C(=O)Nc1ccc(OC)cc1)n1sc2ccccc2c1=O (configuration not stated)
8.0	.	CCOc1ccccc1C(=O)OCC(=O)N1CCN(c2ccccc2)CC1
0.0	.	CC(Cn1cnc2ccccc21)C(=O)N=Nc1c(O)[nH]c2ccccc12 (configuration not stated)
-13.0	.	C=CCn1c(CCNC(=O)c2ccc(OC)c(OC)c2)nc2ccccc21
5.0	.	O=C1NCCCC1C(=O)N1CCN(C(c2ccccc2)c2ccccc2)CC1 (configuration not stated)
16.0	4.0	Cc1nn(C)cc1S(=O)(=O)N1CCc2ccccc2C1
0.0	.	COc1nc(NCCCC(C)C)nc(N2CCC(Cc3ccccc3)CC2)n1
15.0	.	COc1ccc2oc(=O)c(-c3cc4c(c(C)n3)c(=O)oc3ccc(OC)cc34)cc2c1
.	0.7	Cc1nc2ccc(Br)cc2c(=O)n1-c1cc(C(F)(F)F)ccc1N1CCOCC1
5.0	.	CCCn1cnc2cc(NCc3ccc(Br)cc3)ccc21
7.0	.	Cc1cc2cc(CNC(=O)c3ccc(S(=O)(=O)N4CCCC4)cc3)ccc2[nH]1
3.0	-0.4	CCN1CCN(c2ncc3c(n2)CC(c2cc(OC)c(OC)c(OC)c2)CC3=O)CC1 (configuration not stated)
35.0	.	Cn1c(COC(=O)c2sc3ccccc3c2Cl)nc2ccccc21
-1.0	2.5	O=c1c(C=NCCN2CCOCC2)c(C(F)(F)F)[nH]n1-c1nc2ccccc2s1
-15.0	.	Cc1ccc(Cc2nc3c(nnn3Cn3nnc(-c4ccc(Cl)cc4)n3)c(=O)[nH]2)cc1
3.0	1.4	O=C(CCSc1nnc2scc(-c3ccc(Cl)cc3)n12)NCCc1ccccc1
-10.0	-0.4	O=C(NCCCN1CCOCC1)c1cc2ccccc2o1
-13.0	.	CC(=O)Nc1cc(C)c2c(=O)oc3ccccc3c2n1
-2.0	-4.0	Cc1ccc(NC(=O)c2nc3ncccn3n2)cc1
6.0	-2.2	COc1cc(C(=O)NCC#N)cc(OC)c1OC
9.0	.	COc1cc(Cn2cnnn2)ccc1O
0.0	.	Cc1cc(C)n2nc3nc(N4CCCC4)nc(-c4ccccc4)c3c2n1
-3.0	-1.6	COc1cccc2cc(C(=O)Nc3ccc(S(=O)(=O)N4CCOCC4)cc3)c(=O)oc12
-12.0	-2.6	Cc1csc(Nc2ccccc2)[n+]1CCO
8.0	.	O=c1ccc(-c2ccc(Br)s2)n[nH]1
5.0	7.7	COc1cccc(Nc2nnc(Cc3cccnc3)c3ccccc23)c1
18.0	4.8	O=c1[nH]c(NCCO)nc2sc3c(c12)CCCC3
.	-0.3	Cn1nc(-c2cccs2)cc1N
.	0.0	CC(C)S(=O)(=O)c1cscc1Cl
10.0	-2.3	CCOc1ccccc1NC(=O)c1ccco1
-1.0	.	O=C(O)CSc1cnc2ccccc2n1
.	-1.4	CN1CCN(c2ccc(NS(=O)(=O)c3cccc(C(F)(F)F)c3)cc2)CC1
0.0	-1.5	Cc1cc(=O)[nH]c(SCC(=O)Nc2ccc(Br)cc2)c1C#N
-33.0	.	COc1ccc2c(c1)CCc1c(C(=O)NCCc3ccccc3)noc1-2
.	2.3	COC(=O)/C=C1\SC(=Nc2ccc(Cl)cc2)N(c2ccc(Cl)cc2)C1=O
-4.0	-1.4	CC(C)N=Cc1c(O)[nH]c2ccccc12
4.0	-0.1	CC1CCCCC1NC(=O)c1cccc(NS(=O)(=O)c2ccc(Br)cc2)c1 (configuration not stated)
-19.0	.	COc1ccc(C(=O)Cc2ccc3c(c2)OCCO3)c(O)c1
-20.0	.	Cc1nc2c3ccccc3nc(NNC(=O)CCC(=O)N3CCC(C)CC3)n2n1
-1.0	.	O=C(NC1CCC(C(F)(F)F)OC1=O)c1ccccc1 (configuration not stated)
18.0	-0.9	CCCc1cc(=O)[nH]c(SC)n1

(more compounds)
Sa helicase inh	MgrA-DNA mod	mol
-13.0	-1.9	CC(C)(C)C(=O)CSC1=NCCS1
-4.0	-0.9	CSc1ncc2c(c1C#N)CCCC2
.	-1.5	O=C(Nc1ccc([N+](=O)[O-])cn1)c1ccc(Sc2ccc(Cl)cc2)c([N+](=O)[O-])c1
13.0	.	Nc1ccccc1-c1nnn(CC(=O)Nc2ccccc2)n1
6.0	.	Cn1c(=O)c2ccccc2n2c(COC(=O)C3(Cc4nc5ccccc5s4)CCCCC3)nnc12
6.0	-3.7	CCOC(=O)c1c(CSc2ccccc2)oc2ccc(O)c(CN(C)C)c12
15.0	-6.7	Nc1ncnc2nc(N3CCCCC3)[nH]c12
.	1.8	CC(=C\c1ccc(Cl)cc1)/C(C)=N/O
-22.0	.	CCN(CC)C(=O)C1CCCN1 (configuration not stated)
23.0	.	CC(/C=C/c1ccc[n+](C)c1)=C\C(=O)O
.	-0.3	N#CCC(=O)NC(=O)Nc1ccc(F)cc1F
.	1.4	FC(F)(F)c1ccnc(SCn2c(=S)sc3ccccc32)n1
2.0	.	CCc1ccc(NC(=O)C(C)OC(=O)c2ccc3c(c2)OCO3)cc1 (configuration not stated)
9.0	-5.3	O=c1cc[nH]c2cc(N3CCOCC3)c(F)cc12
.	-0.9	Cn1nccc1NC(=O)c1ccccc1
-4.0	2.8	CN(C)CCCN1C(=O)C2CCc3[nH]c4ccccc4c3C2C1=O (configuration not stated)
17.0	.	O=c1cc(CN2CCC(Cc3ccccc3)CC2)c2ccc(O)cc2o1
-35.0	.	O=C(Nc1ccc(S(=O)(=O)Nc2ncccn2)cc1)c1ccc2c(c1)C(=O)N(Cc1ccncc1)C2=O
1.0	0.7	COc1ccc(Nc2cc(C)c3cc(NC(=O)c4ccc(OC)cc4)ccc3n2)cc1
10.0	.	CN(C(=O)COCc1cc(-c2ccco2)on1)c1ccccc1
3.0	.	Cc1cc(C(=O)COn2nnc3ccc(Cl)cc32)c(C)n1-c1ccc2c(c1)OCCO2
7.0	-8.4	Cn1nnc2cc(C(=O)N3CCCCCC3)ccc21
-2.0	0.9	Cc1ccccc1Nc1sc(C(=O)c2ccccc2)c(N)c1C(N)=O
-16.0	.	CCN(C(=O)c1cccc(S(=O)(=O)N2CCCC2)c1)c1nc2c(C)cccc2s1
.	-1.0	CN(C)c1nn(C(=O)NC(C)(C)C)cc1-c1ccccc1
1.0	.	O=C(CSC1=NS(=O)(=O)c2ccccc2N1)N1CCCC1
16.0	-0.7	CSc1nc2ccc(S(=O)(=O)N3CCc4ccccc43)cc2s1
7.0	-3.5	CCN1C(=O)S/C(=C\c2ccc3c(c2)OCO3)C1=O
9.0	-1.1	O=C(NCC12CC3CC(CC(C3)C1)C2)C1CCCCC1C(=O)OCC(F)(F)F (configuration not stated)
14.0	.	CNC(=O)c1cc2c(=O)n3cc(C)ccc3nc2n(C(C)C)c1=N
-1.0	.	Cc1c(O)ccc(C(=O)COc2ccccc2)c1O
.	-0.2	CSC(=O)NC(=O)c1cccc(=O)o1
.	-3.8	CCOC(=O)c1c(C)n(-c2ccccc2)c2ccc(OC(=O)c3cccc(F)c3)cc12

Not all compounds are listed; the hit share may differ from the screen's.
